Bst PK mod – modulators of Bacillus stearothermophilus pyruvate kinase; partly purified Bacillus stearothermophilus pyruvate kinase, luminescence ATP production; ribose 5-phosphate activator present at AC10; Potency, µM; 1.2% of 51,000 active; in the data active means potency below about 11 µM; inconclusive means mostly about 12 µM to 25 µM; inactive means weaker than that;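 the screen sought inhibitors and activators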;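 also: potency is read from the fitted curve at half-maximal effect; scaled between full activation by ribose 5 phosphate and full inhibition by luteolin; about four in five hits inhibit and the cells do not say which; series up to 57 µM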
YjeE inh – YjeE (TsaE) inhibition, E. coli. purified YjeE, fluorescence polarisation of a bound ADP probe. Potency, µM. 0.05% of 71,000 active. AID 605; active = well fitted falling curve; inconclusive = weaker or top-dose-only fall, or a rising curve; inactive = flat or poorly fitted curve;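 also: top concentration of the series not given in the record; excess ADP was the control for the full effect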
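Purified YjeE (10 uM) with BODIPY Texas Red-labeled ADP probe (2 uM); compounds pin-transferred, 15 min at room temperature. Binding inhibition read as decreased fluorescence polarization; ADP titration as control.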
* marks the source's active call; other numbers are inactive results; i = inactive; ? = inconclusive; nt = no result given. Only part of the results is shown; rates above refer to the full screens.

Results follow in this order: Bst PK mod, YjeE inh
C=CCn1c(SCC(=O)c2cc(C)n(C(C)COC)c2C)nc2sc(C)c(C)c2c1=O (stereo not drawn)
→ >57, i
CC(=O)Nc1nc(N2C(=O)c3ccccc3C2=O)n(-c2ccccc2)n1
→ >57, i
Cn1c(CCNC(=O)c2ccccc2F)nnc1SCc1nc2ccccc2c(=O)[nH]1
→ >57, i
COc1ccc2cc(CN(C(=O)Nc3ccccc3OC)C3CCCC3)c(=O)[nH]c2c1
→ >57, i
CCCCn1nnc(NC(=O)Cc2ccc(Cl)cc2)n1
→ >57, i
CCN(CC)S(=O)(=O)c1ccc(C(=O)Nc2ccc3c(c2)OCCO3)cc1
→ >57, i
CCCCOc1ccc(S(N)(=O)=O)cc1
→ >57, i
Cc1ccc(C)n1-c1ncn[nH]1
→ >57, i
Cc1csc2nc(CNS(=O)(=O)c3ccc4c(c3)CCCC4)cn12
→ nt, i
NCCSCCc1ccccc1
→ nt, i
O=c1[nH]c(=O)n([C@@H]2C[C@H](O)[C@H](CO)O2)cc1I
→ nt, i
CC(=O)c1c(C)c2c(n1CCN(C)C)CCCC2
→ >25.6, nt
O=C(CSc1nc2ccccc2o1)Nc1nc2c(s1)CCCC2
→ i, i
CCCc1nc2sc3c(SCC(=O)NCc4ccco4)ncnc3c2c2c1CCC2
→ ?, i
CCC1CCCCN1C(=O)c1cc2cc(Br)ccc2oc1=O (stereo not drawn)
→ nt, i
CCOC(=O)C1CCCN(c2c(Nc3cccc(C)c3)c(=O)c2=O)C1 (stereo not drawn)
→ nt, i
CC1=C(C(=O)OCC(C)C)C(c2cccc(F)c2)N2C(=O)C(C)SC2=N1 (stereo not drawn)
→ >57, i
c1ccc(Sc2ncnc3c2oc2ccccc23)nc1
→ >11.4, i
Cc1cccc(NS(=O)(=O)c2ccccc2)n1
→ nt, i
CC(c1nnc(SCC(=O)c2c(N)n(C)c(=O)n(C)c2=O)n1-c1ccc(Cl)cc1)N(C)C (stereo not drawn)
→ >57, i
O=C(Nc1nc2ccc(S(=O)(=O)N3CCCCC3)cc2s1)C1CCCO1 (stereo not drawn)
→ >57, i
Cn1ncc(Cl)c1C(=O)Nc1cccnc1
→ >57, i
Cc1nc2cc(C(F)(F)F)ccc2n1C1CCN(C(=O)N2CCOCC2)CC1
→ >57, i
Cc1nc2ccc(CCO)cc2s1
→ >57, i
O=C(NCCN1CCOCC1)[C@H](Cc1ccccc1)N1C(=O)c2ccccc2C1=O
→ >57, i
CCc1ccc2oc(-c3cccc(NC(=O)c4cccnc4)c3)nc2c1
→ 4.06*, i
COc1ccc(CCN(C(=O)c2ccccc2)C2=CC3CCC(C2)N3C)cc1OC (stereo not drawn)
→ >57, i
O=C1C2CCCN2C(c2ccccc2F)N1c1ccc(Cl)cc1 (stereo not drawn)
→ >57, i
Cc1noc(C)c1C(=O)Nc1cccnc1
→ >57, i
COc1ccc(S(=O)(=O)N2CCCC(C(=O)O)C2)cc1 (stereo not drawn)
→ nt, i
COc1ccc(CN2C(=O)C3C4C=CC(C4)C3C2=O)cc1 (stereo not drawn)
→ >57, i
Nc1ccc(C(=O)O)cc1
→ nt, i
O=C(c1ccc(F)cc1)c1ccc(N2CCCC2)cc1
→ nt, i
COc1ccccc1N1CCN(S(=O)(=O)c2cccc3nsnc23)CC1
→ 7.36*, i
Cc1ccc(C(=O)Nc2nnn(C)n2)cc1
→ nt, i
CN1CCN(CC(=O)Nc2c(C(=O)C3CC3)oc3ccccc23)CC1
→ nt, i
CC1(C)CCC[C@@]2(C)[C@@H]1CC[C@]1(C)OC(=O)C[C@@H]21
→ nt, i
COC(=O)c1ccc(CSc2nc3scc(-c4cccs4)c3c(=O)[nH]2)o1
→ >57, i
Cc1nc(SCc2c(F)cccc2Cl)c2c(=O)n(C)c(=O)n(C)c2n1
→ nt, i
Cc1cc(O)c(C(C)C)cc1C1(c2cc(C(C)C)c(O)cc2C)OC(=O)c2ccccc21
→ nt, i
CCc1c(O)nc(SCC(=O)NCc2ccco2)[nH]c1=O
→ >57, i
O=C(O)Cn1c(CC(=O)N2CCCC2)nc2ccccc21
→ >57, i
COc1ccc(CCNC(=O)C2CCCN(c3nn4c(=O)cc(C)nc4s3)C2)cc1OC (stereo not drawn)
→ >57, i
CCS(=O)(=O)NCC(c1cccnc1)N1CCN(c2ccccc2F)CC1 (stereo not drawn)
→ >57, i
CCCCN1C[C@H](O)[C@@H](O)[C@H](O)[C@H]1CO
→ >11.4, nt
Cc1cc(C)cc(N2C(=O)N(c3ccccc3C)C3CS(=O)(=O)CC32)c1 (stereo not drawn)
→ >57, i
COC(=O)CSc1nnc(CNc2ccc(OC)cc2)n1C
→ >57, i
CCN(CC)S(=O)(=O)c1ccc(S(=O)(=O)Nc2ccc(C(=O)N3CCCC3)cc2)cc1
→ >57, i
Cc1ccc(-n2nc(C(=O)N3CCN(C)CC3)c3c4ccccc4n(C)c3c2=O)cc1
→ >57, i
COc1ccc(OC)c(NC(=O)c2cc(-c3cc(Cl)ccc3O)n[nH]2)c1
→ >57, i
CC(=O)[C@H]1CC[C@H]2[C@@H]3CCC4=CC(=O)CC[C@]4(C)[C@H]3[C@H](O)C[C@]12C
→ >25.6, nt
CCCCC(=O)Nc1ccc(NC(=O)C(C)C)cn1
→ >57, i
COc1ccc(CC(=O)OCC(=O)Nc2ncc(Cl)cc2Cl)cc1
→ ?, i
O=C(CSc1ccc2nnc(-c3cccc(F)c3)n2n1)NCC1CCCO1 (stereo not drawn)
→ >57, i
O=c1[nH]ccc2c(O)cccc12
→ nt, i
COc1cc2c(cc1OC)-c1cc(OCc3cccnc3)nc(=O)n1CC2
→ >57, i
COc1ccc(C(=O)N2CC(=O)N(CCc3ccccc3)C(=O)C2)cc1OC
→ >57, i
Cc1ccc(Cc2cncc(O)c2)cc1S(=O)(=O)O
→ >57, i
CC(C)CCC(C(=O)O)C(C)CC(=O)NC1CCCCC1 (stereo not drawn)
→ >57, i
COC(=O)c1cnn(-c2ccc(C)c(C)c2)c1-n1cccc1
→ >57, i

Other records.
Results follow in this order: Bst PK mod, YjeE inh
Cc1cc(C)n(CCn2nc(C)cc2C)n1
→ >57, i
O=C(CN(Cc1ccco1)C(=O)Cn1nnc(-c2cccs2)n1)NCc1ccccc1
→ >57, i
O=C(NC1CCCCCC1)C1c2ccccc2C(=O)N1Cc1ccco1 (stereo not drawn)
→ >57, i
Cc1nc2sccn2c1-c1csc(NCc2ccccc2)n1
→ >57, i
O=C(O)CCCC(=O)Nc1cccc(-c2nc3ccccc3[nH]2)c1
→ nt, i
CC(C)(C)NC(=O)c1ccc(COCC(F)(F)F)o1
→ >57, i
Cc1cc(N2CCCCC2)nc(SCC(=O)c2ccccc2)n1
→ >57, i
CCOC(=O)C1C(=O)CC(C)(O)C(C(=O)OCC)C1c1ccccc1OC (stereo not drawn)
→ >57, i
CNc1ncnc2ccc(-c3ccc4c(c3)OCO4)cc12
→ nt, i
O=C1C(=O)N(CCN2CCOCC2)C(c2ccccn2)/C1=C(/O)c1ccc(Cl)cc1 (stereo not drawn)
→ >57, i
CCSc1nc(N2CCOCC2)c2c(c1C#N)CCCC2
→ >57, i
O=C(NCCN1CCOCC1)c1cc(-c2ccccc2)on1
→ >57, i
CCN(CC)c1ccc(NC(=O)c2cc3ccccc3o2)c(C)c1
→ >57, i
COc1ccc(C2=NO[C@@H]3C(=O)N(c4ccc5c(c4)OCCO5)C(=O)[C@H]23)cc1OC
→ >57, i
O=C(COc1ncnc2ccccc12)NCCC1=CCCCC1
→ >57, i
Cc1nc(P(=O)(c2ccccc2)c2ccccc2)c(N2CCOCC2)o1
→ nt, i
CCCOc1ccc(N2CC(C(=O)Nc3ccc4c(c3)OCO4)CC2=O)cc1 (stereo not drawn)
→ nt, i
COc1ccc(-c2nc(CSCC(=O)NCc3ccco3)c(C)o2)cc1
→ nt, i
CN1C(=O)CC(N2CCN(C(=O)CN3CCCC3)CC2)C1=O (stereo not drawn)
→ >57, i
O=C1CCCN1c1ccc(CNS(=O)(=O)c2ccc(F)cc2)cc1
→ >57, i
CCc1nnc(NC(=O)c2ccc(S(=O)(=O)N(CC(C)C)CC(C)C)cc2)o1
→ >57, i
O=S(=O)(Nc1nc2ccccc2[nH]1)c1ccc(Cl)cc1
→ >57, i
COc1ccc(OC)c(S(=O)(=O)N2CCC(C(=O)NC(C)c3ccccc3)CC2)c1 (stereo not drawn)
→ >57, i
COc1cccc(-c2nc(NCc3cnc(C)cn3)c3ccccc3n2)c1
→ nt, i
COc1ccccc1N1CCN(C(=O)c2cc3c(=O)n(C)c4ccccc4c3n2C)CC1
→ nt, i
CC(C)(C)NC(=O)Nc1ccc2nccnc2c1
→ nt, i
CN(C)/C=N/c1ncnc2c1cnn2-c1ccc(C(F)(F)F)cn1
→ >57, i
Nc1nnc(SCCN2C(=O)c3ccccc3S2(=O)=O)s1
→ >57, i
COc1ccc(C2=NO[C@@H]3C(=O)N(c4ccc(C)cc4C)C(=O)[C@H]23)cc1OC
→ >57, i
Cc1nn2c(=O)cc(CSc3nc4ccccc4[nH]3)nc2s1
→ nt, i

Exported as tab-separated lines: part of the list above.
smiles	Bst PK mod	YjeE inh
CN1C(=O)CC(N2CCN(C(=O)CN3CCCC3)CC2)C1=O (stereo not drawn)	>57	i
O=C1CCCN1c1ccc(CNS(=O)(=O)c2ccc(F)cc2)cc1	>57	i
CCc1nnc(NC(=O)c2ccc(S(=O)(=O)N(CC(C)C)CC(C)C)cc2)o1	>57	i
O=S(=O)(Nc1nc2ccccc2[nH]1)c1ccc(Cl)cc1	>57	i
COc1ccc(OC)c(S(=O)(=O)N2CCC(C(=O)NC(C)c3ccccc3)CC2)c1 (stereo not drawn)	>57	i
COc1cccc(-c2nc(NCc3cnc(C)cn3)c3ccccc3n2)c1	nt	i

Going on with the list:
Results follow in this order: Bst PK mod, YjeE inh
O=C(O)CC(c1ccc(Cl)cc1)N1C(=O)CCC1=O (stereo not drawn)
→ >57, i
COc1ccc(S(=O)(=O)N(Cc2cc3ccc(OC)cc3[nH]c2=O)CC2COCCO2)cc1 (stereo not drawn)
→ >57, i
CCOC(=O)c1ccc(NC(=O)C2CCCN(S(=O)(=O)c3cnc[nH]3)C2)cc1 (stereo not drawn)
→ nt, i
Cc1ccc(C(=O)CSc2nnc(COc3cc(C)cc(C)c3)o2)cc1
→ >57, i
CCN1CCN(C(=O)C2CCN(S(=O)(=O)c3cccc4cccnc34)CC2)CC1
→ nt, i
COc1cc(NC(=O)c2cc(-c3cccs3)on2)cc(OC)c1OC
→ >57, i
CCOC(=O)c1c(NC(=O)c2cccs2)sc(C)c1CC
→ nt, i
CCc1nc(NCCc2ccccn2)c2nnn(Cc3ccccc3F)c2n1
→ >57, i
CN(C)S(=O)(=O)NC(c1ccccc1)c1ccccc1
→ >57, i
Cc1occc1C(=O)NC(C)C1CCCO1 (stereo not drawn)
→ >57, i
Cc1cccc(N2CCN(C(=O)Cn3sc4nc(C)cc(C)c4c3=O)CC2C)c1 (stereo not drawn)
→ nt, ?
O=C(CSc1nnc(-c2cccs2)o1)c1cccs1
→ >57, i
COc1cc(OC)c(OC)cc1CNc1cc(C)ccc1OC
→ nt, i
CC1CCc2cc(F)cc3c(=O)c(C(=O)O)cn1c23 (stereo not drawn)
→ >25.6, nt
O=C(O)c1ccc2c(c1)C(=O)N(Cc1ccccc1)C2=O
→ >57, i

Shown as a hit in Bst PK mod (from the list above):
Results follow in this order: Bst PK mod, YjeE inh
CCc1ccc2oc(-c3cccc(NC(=O)c4cccnc4)c3)nc2c1
→ 4.06*, i
COc1ccccc1N1CCN(S(=O)(=O)c2cccc3nsnc23)CC1
→ 7.36*, i

Next records.
Results follow in this order: Bst PK mod, YjeE inh
Cc1[nH]nc2c1C1(CCC(c3ccccc3)CC1)C(C#N)=C(N)O2 (stereo not drawn)
→ >57, i
Cc1ccc(S(=O)(=O)c2n[nH]n3c2nc(=O)c2ccccc23)cc1
→ >11.4, i
C=CCNC(=O)c1ccccc1NC(=O)c1ccccc1
→ >57, i
Cc1nc2cc(NC(=O)N3c4ccccc4CC3C)ccc2o1 (stereo not drawn)
→ ?, i
COc1ccc2nc3cc(Cl)ccc3c(Nc3ccc(O)c(CN4CCN(C)CC4)c3)c2c1
→ nt, i
COc1cccc(NC(=O)COC(=O)c2cccnc2)c1
→ >57, i
COn1c(SC2CCCCC2)nc2ccccc2c1=O
→ >25.6, nt
CCOC(=O)CSc1nc2cc(OCC)ccc2cc1C#N
→ >57, i
CC(C)N=C1SCC(C)(/C=N/O)S1 (stereo not drawn)
→ >57, i
COC(=O)[C@@]1(Cc2ccc(F)cc2)[C@H]2c3cc(C(=O)N(C)C)n(Cc4ccc(O)c(OC)c4)c3C[C@H]2CN1C(=O)c1ccccc1
→ nt, i
Cc1ccc(-c2nc(C3CCCN(S(=O)(=O)c4ccc(C)cc4)C3)no2)cc1 (stereo not drawn)
→ nt, i
Nc1c(C(=O)NCc2ccco2)nnn1Cc1ccccc1
→ >57, i
CCOC(=O)C1=C(CS(=O)(=O)c2ccccc2)NC(=O)NC1c1ccccc1OCC (stereo not drawn)
→ nt, i
Cc1ccnc(NC(=O)Nc2cccc(F)c2)c1
→ i, i
COc1ccc(NC(=O)CSc2nnc(CNC(=O)c3ccco3)n2-c2ccccc2OC)cc1
→ >57, i
CCCCCSc1nc2c(c(=O)[nH]c(=O)n2C)n1C(C)C
→ nt, i
C/C(N)=C(/C#N)C(=O)CSc1nc(C2CCCCC2)n(-c2ccccc2)n1
→ >57, i
O=C(c1ccccc1)c1cccn1CC(=O)N1CCN(c2ccccc2)CC1
→ >57, i
COc1cccc(/C=C/c2ccncc2)c1OC
→ nt, i
